# Screening data from PubChem BioAssay.
# Proteasome disasm = inhibitors of ATP-driven 26S proteasome dissociation, primary screen, biochemical, bead-based flow cytometry, GFP-tagged proteasome | anti-FLAG beads, GFP-proteasome disassembly | inhibition of disassembly, % (test concentration not listed) | AID 751, 2007 | 24,000 compounds, 0.2% hits;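 active = above 40%; inconclusive = likely self-fluorescent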;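 also: plate controls were ATP control with full disassembly for no effect and ATP-gamma-S intact proteasomes for full effect; higher percent means more bead fluorescence retained so stronger block of disassembly; stock transfer was 100 nL into about 10 µL; wells with too few beads may also be inconclusive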
# VCAM-1 rise = enhancers of VCAM-1 display on endothelial cells, cell-based, plate reader, pooled HUVEC, TNFa stimulus (AID 455); HUVEC TNFa-induced VCAM-1 immunofluorescence, plate reader; numbers were filed only for top-ranked candidate wells; augmentation, % at 5 µM; 10,000 compounds, 0.2% hits;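 active = a compound raising TNF-alpha-driven VCAM-1 surface staining, with its hit status upheld on visual or statistical review; inactive = the rest, including hits rejected on review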;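 also: 0% = TNFa with vehicle and 100% = strongest image-checked hit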
# * hit, by the source's call; i = inactive; u = inconclusive; x = no result given. These rows are one share of the data; rates above refer to the full screens.
canonical_smiles	Proteasome disasm	VCAM-1 rise
COc1ccc(CCN2C(=O)CC(N3CCOCC3)C2=O)cc1 (stereo unspecified)	4.5	i
CC1=C(C(N)=O)C(c2cccnc2)n2nc(SCc3ccccc3Cl)nc2N1 (stereo unspecified)	-0.9	i
Cn1ccnc1SCC(=O)Nc1ccc2ccccc2c1	-0.7	i
O=C(O)c1ccc(Cl)c(NC(=O)C2CCCN2S(=O)(=O)c2cccc3nsnc23)c1 (stereo unspecified)	0.9	x
O=C(Cc1ccc(-n2cccc2)cc1)NC1CCCCC1	28	x
COc1ccc(Cn2nnnc2C(c2ccccc2OC)N2CCC(C(N)=O)CC2)cc1 (stereo unspecified)	-0.9	i
Cc1ccc(-n2c(Cc3cccn3C)nnc2SCC(=O)N2CCN(c3ccccc3)CC2)cc1	1.9	x
CCOC(=O)CSC1=C(C#N)C(c2ccccc2)C(C(C)=O)=C(C)N1 (stereo unspecified)	1.7	x
Cc1nc(SCC(=O)Nc2ccccc2C(F)(F)F)c2c(=O)n(C)c(=O)n(C)c2n1	-0.4	i
O=C(NCc1cccnc1)C1c2ccccc2C(=O)N1C1CCCCCC1 (stereo unspecified)	0.9	x
O=C(C1CCCN(Cc2cccs2)C1)N1CCCCCC1 (stereo unspecified)	0.4	x
COc1ccccc1CN1CC(C(=O)NCc2cccnc2)CC1=O (stereo unspecified)	-0.9	i
O=C(NCc1ccc(F)cc1)C1CCC(=O)N1CCc1ccccc1 (stereo unspecified)	0.1	x
CCOc1ccc(OCC)c(NC(=O)C2COc3ccccc3O2)c1 (stereo unspecified)	-0.3	x
CN(C)/C=C1\C=C(c2ccccc2)OC1=O	-5.1	x
Cc1nc2ccccc2c2oc(C(=O)N3CCN(C4CCCCC4)CC3)cc12	2.6	x
COc1cccc2cc(C(C)N(CCCN3CCOCC3)C(=O)Nc3ccccc3)oc12 (stereo unspecified)	0.0	x
CCN(CC)S(=O)(=O)N1CCC(C(=O)NC2CCCC2)CC1	-1.5	x
Cc1cc(Nc2ccc(C(C)C)cc2)n2ncnc2n1	2.1	x
COc1ccc(C(O)C(CC(=O)NCCCOC(C)C)C(=O)NCCCOC(C)C)cc1OC (stereo unspecified)	0.1	x
CC(=O)N1C(=O)C(=C2C=C(C)OC(C)=C2)c2ccccc21	85*	x
CCCc1[nH]nc2c1C(/C(C)=C/c1ccccc1)C(C#N)=C(N)O2 (stereo unspecified)	-1.8	x
COCCN1C(=O)c2oc3ccccc3c(=O)c2C1c1cccc(O)c1 (stereo unspecified)	-0.9	x
CN1CCN(CCCNC(=O)c2ccc3c(c2)N(Cc2ccccc2)CCS3)CC1	-0.4	x
CCN(CCCNC(=O)c1ccc(N2CCCC2=O)cc1)c1cccc(C)c1	3.3	x
COc1ccc(-n2c(Cc3cccn3C)nnc2SCC(=O)Nc2ccc(C(C)=O)cc2)cc1	2.0	x
COc1ccc(CNc2nc3nc(C)c(Cl)c(C)n3n2)cc1OC	7.9	i
O=C(CN1CCN(C(=O)c2c(F)cccc2F)CC1)Nc1ccccc1F	-2.1	x
CCC(C)NC(=O)C1=C(C)C(=O)OC12CCC(C)CC2 (stereo unspecified)	-0.3	x
COc1ccc(C(=O)N2CCN(c3ccc(C)c(C)c3)CC2)cc1OC	-0.3	x
CCOC(=O)c1c(NC(=O)c2noc3c2CCCC3)sc2c1CCCC2	0.1	x
Cc1ccc2c(c1)N(CCC(=O)NCC1CCCO1)C(=O)CO2 (stereo unspecified)	1.7	x
COc1ccc(CCNC(=O)CCS(=O)(=O)c2cccc3nsnc23)cc1OC	1.2	x
Cc1ccc(OC(=O)CCC(=O)OCCCC(F)(F)C(F)(F)F)cc1	-0.7	i
Cc1cccc(C)c1NC(=O)N1CCC(N2CCCCC2)CC1	0.3	x
COCCNC(=O)CCn1nc(-c2ccc(Cl)cc2)ccc1=O	0.1	x
CCC(=O)OC1(C#CCOc2ccc(OC)cc2)CCN(C)CC1	-4.1	i
CN(C1CCCCC1)S(=O)(=O)c1ccc(S(=O)(=O)N2CCN(CCC#N)CC2)cc1	0.1	i
CC(C)Nc1nc(-c2ccccc2)nc(-n2ccnc2)n1	0.7	x
CC(=O)N1CCc2cc(Br)cc(S(=O)(=O)NCCCN3CCCC(C)C3)c21 (stereo unspecified)	-0.5	i
CC1(C)CC(=O)c2c(-c3cccs3)n[nH]c2C1	-1.5	x
CN(C)c1cccc(N=C2C=C(N3CCOCC3)CC(C)(C)C2)c1	2.5	i
CCN(CC)c1ccc(-c2nn3c(-c4cccnc4)nnc3s2)cc1	3.6	i
O=C(NCC1CCCO1)C1CCN(c2ccc(S(=O)(=O)N3CCCC3)cc2)CC1 (stereo unspecified)	-2.3	19
COc1ccc2c(c1)c(CC(=O)OCC(=O)O)c(C)n2C(=O)c1ccc(Cl)cc1	0.1	i
CCCCN(CC)CCNC(=O)C1c2cc(OC)c(OC)cc2C(=O)N2CCc3ccccc3C12 (stereo unspecified)	0.6	x
NC(=O)c1ccsc1NC(=O)COC(=O)Cc1ccsc1	0.6	i
c1ccc(Nc2ccccc2Nc2ccccn2)nc1	0.1	i
CN(c1cccc(NC(=O)COc2ccccc2)c1)S(C)(=O)=O	-0.8	i
Cc1ccc(N2CCN(CCc3nc4cc(NS(C)(=O)=O)ccc4n3C)CC2)cc1	-0.7	i
Cn1c(=O)c2c(nc(N3CCCCC3)n2CCCNC2=NCCCC2)n(C)c1=O	0.9	x
CCOC(=O)C1=C(C)N=c2s/c(=C\c3ccncc3)c(=O)n2C1c1ccc2c(c1)OCO2 (stereo unspecified)	1.5	x
Brc1ccc(-c2nnc3sc(CN4CCc5ccccc5C4)cn23)cc1	-0.2	x
CCN(CC)S(=O)(=O)c1ccc2oc(C(=O)N3CCOCC3)c(C)c2c1	-0.6	i
COc1ccc(S(=O)(=O)N2CCC(C(=O)NCc3ccco3)CC2)cc1	0.7	i
O=C(CN1CCN(C2CCCCC2)CC1)Nc1ccccc1-c1ccccc1	-2.8	i
CC(=O)c1ccc(NC(=O)CCn2c(=O)oc3ccccc32)cc1	0.1	x
CN(Cc1ccccc1)c1ncnc2c1cnn2-c1ccccc1	0.0	x
OC(COc1c(F)cc(Br)cc1F)CN1CCN(c2ccc(F)cc2)CC1 (stereo unspecified)	0.4	x
C=CCn1cc(C(=O)NCCOC)c(=O)c2cc(S(=O)(=O)N(CC)CC)ccc21	-0.1	i

# (cont.)
canonical_smiles	Proteasome disasm	VCAM-1 rise
O=C(CN1CCOc2ccccc21)NCc1ccc(Cl)cc1	0.0	x
O=C(NC1CCCC1)C1C2C=CC3(CN(Cc4cccs4)C(=O)C13)O2 (stereo unspecified)	-0.3	x
O=C(C1CCC(=O)N1Cc1ccccc1Cl)N1CCN(c2cccc(Cl)c2)CC1 (stereo unspecified)	-0.3	x
Cc1[nH]nc2c1C(=O)CCC2	-2.5	i
CCN1CCN(C(=O)Cn2c(=O)sc3ccccc32)CC1	3.2	x
Nc1nc(-c2ccccc2Br)cs1	1.1	i
Cc1cc(C)c(S(=O)(=O)NCc2cn3c(C)csc3n2)c(C)c1	-0.5	x
Cc1ccc(OCCN2C(=O)CSC2=O)cc1	0.4	x
CCC(=O)c1ccc(OCC(O)Cn2cnc3ccccc32)cc1 (stereo unspecified)	-0.1	x
CC(=O)NC(C)c1nc2ccccc2n1C(C)C (stereo unspecified)	-0.3	i
CCOC(=O)CN(C(=O)CSc1nnc(-c2ccncc2)n1CCCN(C)C)c1ccccc1	0.6	i
CS(=O)(=O)C1=C(O)C(=O)N(c2ccccc2)C1c1ccccc1 (stereo unspecified)	-0.3	i
CSc1nnc(-c2cnccn2)n1C	-0.6	i
O=C(CN1CCN(Cc2ccc3c(c2)OCO3)CC1)Nc1ccc2c(c1)OCCO2	1.1	i
COC(=O)c1c(C)[nH]c(C)c1-c1ccccc1Cl	-3.7	x
COc1ccc(-c2nc(CSCC(=O)N3CCN(c4cccc(C)c4)C(C)C3)c(C)o2)cc1OC (stereo unspecified)	2.1	i
COc1cc2c(cc1OC)C(C(=O)O)C(c1cc(Br)c(O)c(OC)c1)N(C)C2=O (stereo unspecified)	0.8	x
CCOc1ccc(CN2CCN(c3cc(C)nc4c5c(C)cc(C)nc5nn34)CC2)cc1	1.3	i
Nc1nonc1-c1noc(CCCN2C(=O)c3ccccc3C2=O)n1	0.1	x
COc1ccc2nc3oc(C(=O)N4CCN(c5cccc(Cl)c5)CC4)cc3cc2c1	-0.1	x
COc1ccc(-c2nc(N3CCCC3)[nH]c(=O)c2C#N)cc1	0.9	i
COCCCNC(=O)c1oc2ccc(S(=O)(=O)N(C)C3CCCCC3)cc2c1C	-0.3	x
O=C(O)c1cc(-c2ccccc2)n(-c2ccccc2C(=O)O)n1	-1.4	x
Cc1ccc(C(c2sc3nc(C)nn3c2O)N2CC(C)OC(C)C2)cc1 (stereo unspecified)	-1.1	i
CC(=O)c1nnn(-c2nc(N)nc(N(c3ccccc3)c3ccccc3)n2)c1C	-0.4	x
Cc1cccn2c(=O)c3cc(C(=O)NC4CCCCC4)c(=N)n(CCN4CCOCC4)c3nc12	-3.2	x
Nc1nnc(Cc2ccc(Cl)cc2)s1	-1.4	i
O=C(NCC1CCCO1)c1ccc2c(=O)n(CCc3ccccc3)c(=O)[nH]c2c1 (stereo unspecified)	0.6	x
Cc1oc(-c2cccs2)nc1CS(=O)CC(=O)NC1CCCCCC1 (stereo unspecified)	9.5	x
COc1ccccc1C1N(c2ccc(Cl)cc2)C(=O)C2CCCN21 (stereo unspecified)	u	x
C=CCOc1ccc(C2c3c(oc4ccccc4c3=O)C(=O)N2c2ccccn2)cc1OCC (stereo unspecified)	-0.9	x
CN(CCNC(=O)c1cc2c(=O)n(C)c3ccccc3c2n1C)Cc1ccccc1	1.7	x
Cc1cccc(OCCn2c(=O)n(C)c3ccccc32)c1	-0.1	x
O=C(CN1CCN(S(=O)(=O)c2ccc(Br)cc2)CC1)Nc1ccc(F)cc1F	1.7	x
COc1ccc(-c2nc(C)c(C(C)=O)n2O)cc1OC	0.8	i
COCCN(CCOC)S(=O)(=O)c1ccc(C(=O)Nc2nc(C)c(C(C)=O)s2)cc1	1.0	x
Cc1cc(C)nc(Sc2ccc3nnc(C(F)(F)C(F)(F)C(F)(F)F)n3n2)n1	0.7	i
CC1CCC(NC(=O)c2cc3c(s2)CS(=O)(=O)C3)CC1 (stereo unspecified)	2.0	x
CCSc1nc2c(c(=O)n(C)c(=O)n2C)n1Cc1ccc(Cl)cc1	1.8	i
CNc1nc(C)nc(-c2ccccc2O)n1	1.2	x
CCOC(=O)C1=C(Cn2cnc3ccccc32)NC(=O)NC1c1cc(C)ccc1C (stereo unspecified)	1.4	i
CC(C)N(C(=O)N1CCC(c2nc(-c3ccncc3)no2)CC1)C(C)C	2.9	i
COc1ccc(OC)c(CNC(=O)Cc2c(C(=O)O)[nH]c3ccccc23)c1	-2.1	x
CCn1c(=N)n(CC(O)COc2cccc(C)c2)c2ccccc21 (stereo unspecified)	0.4	i
COc1ccc(-n2ncc3c(N4CCCc5ccccc54)ncnc32)cc1	-0.6	x
COc1ccc(Cn2c(=O)[nH]c3cc(C(=O)NCCCN4CCCC4)ccc3c2=O)cc1	0.3	i
O=C(N1CCOCC1)C12CC3CC(C1)CC(C(=O)N1CCOCC1)(C3)C2	-0.8	x
CCOc1cccc2c1OC1(C)CC2NC(=O)N1c1cccc(Cl)c1 (stereo unspecified)	-0.7	x

# Reprinted from the part before: 5 compounds, followed by the next part.
canonical_smiles	Proteasome disasm	VCAM-1 rise
CCn1c(=N)n(CC(O)COc2cccc(C)c2)c2ccccc21 (stereo unspecified)	0.4	i
COc1ccc(-n2ncc3c(N4CCCc5ccccc54)ncnc32)cc1	-0.6	x
COc1ccc(Cn2c(=O)[nH]c3cc(C(=O)NCCCN4CCCC4)ccc3c2=O)cc1	0.3	i
O=C(N1CCOCC1)C12CC3CC(C1)CC(C(=O)N1CCOCC1)(C3)C2	-0.8	x
CCOc1cccc2c1OC1(C)CC2NC(=O)N1c1cccc(Cl)c1 (stereo unspecified)	-0.7	x
COc1ccc2oc(=O)cc(C)c2c1	-1.3	x
N#Cc1nc(N2CCOCC2)nc(N2CCOCC2)n1	0.1	x
COCCNS(=O)(=O)c1ccc2c(c1)oc(=O)c1cc(S(=O)(=O)NCCOC)ccc12	0.5	x
CCC1CCCCN1C(=O)CSc1nnc(-c2ccc(OC)cc2)o1 (stereo unspecified)	0.1	i
O=S(=O)(c1ccccc1S(=O)(=O)N1CCCCC1)N1CCCCC1	0.6	x
O=C(O)c1cc(-c2ccccc2)c(N2CCOCC2)s1	-5.0	x
CC(=O)Nc1ccccc1N(C)S(=O)(=O)c1ccc(C)cc1	1.4	x
CCN(CC)c1nc(-c2nn[nH]n2)nc(N(CC)CC)n1	-1.4	x
CCC(C)NC(=O)C1CCN(S(=O)(=O)CC)CC1 (stereo unspecified)	0.1	x
CCC(=O)N1CCc2cc(Br)cc(S(=O)(=O)N3CCCCCC3)c21	0.3	i

# Quoted at random: two entries already listed
canonical_smiles	Proteasome disasm	VCAM-1 rise
CC(=O)Nc1ccccc1N(C)S(=O)(=O)c1ccc(C)cc1	1.4	x
CCC(=O)N1CCc2cc(Br)cc(S(=O)(=O)N3CCCCCC3)c21	0.3	i
